Autofluor counter – compound fluorescence in toxin protease inhibitor counterscreen; 360,000 compounds, 3.1% hits; AID 624483; fluorescence intensity (concentration not given with the values); compound autofluorescence counterscreen, microsphere flow cytometry; active compounds read high;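 active = at least 3 SD above the mean of all compounds, about 16000 in these data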;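 also: 100 nL of 1 mM stock went into each well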
Mtb hypoxia rep – reduces hypoxia-regulated biosensor signal in M. tuberculosis; fluorescence inhibition, % (no concentration beside the values); M. tuberculosis hypoxia-regulated fluorescent reporter, fluorescence; AID 1159583; 300,000 compounds, 0.1% hits;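 active = 35 to 45% if threefold the growth effect, above 45% if 1.5-fold the growth effect; inactive = the rest, general growth blockers included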;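 also: wells of about 50 µL received 100 nL stock; 0% = vehicle wells and 100% = reference inhibitor wells; whole bacteria with a GFP reporter of the hypoxia response; strong numbers were not always called active; many hits fall short of the cut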
Sa ugtP lethal – compounds lethal to S. aureus RN4220 ugtP deletion mutant; growth inhibition, % (test concentration not listed); 330,000 compounds, 0.54% hits; AID 1259309; OD600 growth, 16 h; some inactives read as strong as hits;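 active = z-score under -3 and OD600 up to 0.15 on both plates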;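 also: plate controls were untreated wells for no effect and antibiotic for full effect; wells of about 80 µL received 100 nL stock; the first replicate is given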
PrP UTR inh – inhibition of PrP 5' UTR reporter expression. inhibition, % (concentration not given with the values). cell-based PrP 5' UTR mRNA reporter, plate reader. AID 488862. 340,000 compounds, 0.35% hits;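 active = every replicate at 50% or more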;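 also: 0 = median of the neutral control wells; tested in H4 reporter cells; numbers are from one replicate; inactives centre near -14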
BJeLR lethal – BJeLR cell viability loss | BJeLR (HRASV12) viability, CellTiter-Glo ATP luminescence, 48 h; reference of the scale not given here | 300,000 compounds, 0.17% hits | inhibition, % (concentration not given with the values);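 active = replicate mean above 50%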;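 also: 50 nL library stock added to about 25 µL; numbers are from one replicate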
RN4220 kill – kills Staphylococcus aureus RN4220; S. aureus RN4220 growth, OD600, 16 h; inhibition, % (test concentration not listed); 330,000 compounds, 0.33% hits;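 active = z-score of -3 or lower and OD600 up to 0.18 on both plates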;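 also: plate controls were untreated cells for no effect and reference antibiotic for full effect; stock transfer was 100 nL into about 80 µL; one replicate is shown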
Mtb hypoxia rep growth – second read-out of Mtb hypoxia rep, no call of its own (marks repeat the call); growth inhibition, %; measured here: M. tuberculosis growth (absorbance);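 0% = vehicle and 100% = reference antibiotic; read after six days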
Active calls of the source: *; nt = no result given.

The line under a structure holds: Mtb hypoxia rep growth	Sa ugtP lethal	Mtb hypoxia rep	Autofluor counter	RN4220 kill	PrP UTR inh	BJeLR lethal
- CC(OC(=O)c1ccccc1Nc1ccc(SC(F)F)cc1)C(N)=O (stereo not drawn)
 : 4.7	26.7	2.0	2145	-3.5	-6.0	-1.7
- CC(=O)Nc1ccc(S(=O)(=O)NC(CC(=O)NC2CCCCC2C)C(C)C)cc1 (stereo not drawn)
 : nt	-0.1	nt	nt	1.4	nt	-5.7
- COc1ccc(S(=O)(=O)N2CCC(C(=O)NCCOc3ccccc3F)CC2)cc1OC
 : -4.1	0.5	-3.1	nt	3.1	-0.8	nt
- O=C(CN1C(=O)COc2ccccc21)NCCN1CCC(Cc2ccccc2)CC1
 : -0.5	14.1	2.2	11983	-2.0	-14.3	7.6
- CC(C)NC(=O)CSCc1cccc(Br)c1
 : 10.3	-3.4	7.9	12512	1.0	-22.1	-1.4
- Cc1ccc(NC(=O)CN2C(=O)C3CC=CCC3C2=O)cc1S(=O)(=O)N1CCOCC1 (stereo not drawn)
 : 6.6	4.7	0.0	4517	13.5	-25.2	1.8
- CCC/C=N/NC(=O)c1cccc(Br)c1
 : nt	nt	nt	4366	nt	-24.6	-9.2
- CC(C)OCCCNC(=O)NC12CC3CC(CC(C3)C1)C2
 : 12.3	0.2	13.1	3083	3.6	-0.3	-3.8
- COCCNC(=O)c1ccc(-c2csc(C)n2)cc1
 : 12.0	2.8	-1.4	4353	4.5	-63.6	0.6
- CC1=NNC(=O)C1CCC(=O)N/N=C/c1c(Cl)cccc1Cl (stereo not drawn)
 : nt	nt	nt	4548	nt	-30.3	8.5
- CC(C)CCNC1=CC(=O)CC(c2ccccc2)C1 (stereo not drawn)
 : 8.3	-8.4	3.0	10370	-2.1	-23.3	-0.2
- CCc1nc(Nc2ccc(NC(C)=O)cc2)c2oc3ccccc3c2n1
 : 5.1	-13.7	-10.5	4090	2.5	-5.7	4.3
- CCOc1ccc(NC2CCCCC2NS(=O)(=O)c2ccccc2)cc1 (stereo not drawn)
 : 11.3	6.8	15.1	5372	3.5	-15.6	-6.5
- Cn1cnc([N+](=O)[O-])c1N=C(N)N
 : 4.1	2.5	5.2	3615	1.0	-38.5	-2.4
- Cc1ccc(-n2[nH]c(C)c(C=Nc3ccc4[nH]c(=O)[nH]c4c3)c2=O)cc1
 : nt	nt	nt	2153	nt	-8.1	25.7
- NC(=O)CN1C(=O)C(=O)N(Cc2cccc(Cl)c2)C1=O
 : -7.8	-1.8	-0.6	3929	1.9	-25.7	0.9
- Cc1nn(C(C)C(=O)NCCc2ccccc2)c(=O)c2cc3occc3n12 (stereo not drawn)
 : -0.4	0.2	2.5	5440	4.6	-19.7	3.9
- COC(=O)c1cn(CC(=O)NC2CCCCCC2)c2ccccc12
 : nt	6.7	nt	4324	-1.4	-28.4	-3.2
- CC(C)(C)c1ccc(OCc2ccc(C(=O)N/N=C3\CC4CC=CC34)cc2)cc1 (stereo not drawn)
 : nt	nt	nt	8351	nt	-9.6	3.2
- Nc1nc(-c2ccccc2)c(C(=O)Nc2ccccc2)s1
 : 10.7	8.2	5.6	4601	1.6	-5.0	-7.5
- Cc1c(C(=O)O)sc2nc(SCC(=O)Nc3ccc(S(=O)(=O)NC(C)(C)C)cc3)[nH]c(=O)c12
 : 3.1	0.5	-1.4	2111	-0.4	-12.4	-8.6
- Cc1ccc(N=C2NC(=O)/C(=C\c3ccc(C)s3)S2)cc1
 : 9.0	-4.3	-3.9	4830	7.0	-21.2	-0.6
- Cc1ccc(CNC(=O)CCCNS(=O)(=O)c2cccc3nonc23)cc1
 : 8.9	-13.4	9.4	6505	3.6	-31.1	-7.9
- O=C(Nc1ccc(OC(F)(F)F)cc1)c1cnccn1
 : 23.8	8.4	18.0	3681	1.2	-79.1	2.8
- O=S(=O)(Nc1cccnc1)c1ccc(Cl)c(C(F)(F)F)c1
 : -9.7	-13.1	-1.7	5852	4.1	-10.6	nt
- COc1ccc(S(=O)(=O)N2CCOCC2)cc1C(=O)N1CCCCC1
 : 6.9	8.0	2.6	6614	2.6	-3.0	2.0
- Cc1ccc(-c2n[nH]c(=O)c3ccccc23)c(C)c1
 : 15.2	15.7	12.6	3522	4.2	-16.7	-6.3
- O=C(NCCCNCCCNC(=O)c1ccc(/C=N/O)nc1)c1ccc(/C=N/O)nc1
 : nt	nt	nt	3803	nt	-16.6	-2.6
- COc1ccc(CCNC(=O)COC(=O)C2COc3ccccc3O2)cc1 (stereo not drawn)
 : 5.1	2.0	7.7	6331	3.0	4.0	nt
- O=C(c1ccc(Br)cc1)c1sc(N2CCOCC2)nc1-c1ccccc1
 : 12.9	3.6	3.4	4446	22.3	-14.9	5.8
- Cc1ccc(-n2ccnc2SCC(=O)N(CC(C)C)C2CCS(=O)(=O)C2)c(C)c1 (stereo not drawn)
 : 3.9	0.9	5.9	7732	2.4	-12.9	-17.0
- Cc1cc2c(cc1S(=O)(=O)N1CCN(c3ccccc3)CC1)OCC(=O)N2
 : -2.0	5.6	3.1	4566	6.1	-14.5	-1.2
- O=C(CNC(=O)c1ccc2c(c1)OCCO2)N/N=C/c1cccc(Br)c1
 : nt	nt	nt	2244	nt	-52.8	-7.2
- O=C(c1c[nH]c2ccc(S(=O)(=O)N3CCC4(CC3)OCCO4)cc2c1=O)N1CCOCC1
 : 3.8	3.3	1.0	2138	-12.1	-1.3	-10.8
- Cc1ccc(Cn2cccc2/C=N/NC(=S)Nc2ccc(C)cc2)cc1
 : nt	nt	nt	3085	nt	4.8	-3.3
- COc1ccc(OCCNS(=O)(=O)Cc2ccccc2)cc1
 : -5.5	0.8	-0.9	2824	-4.8	-15.0	-8.2
- CC(NC(=O)c1[nH]cnc1C(=O)Nc1ccccc1)C(=O)OC(C)(C)C (stereo not drawn)
 : 1.3	4.2	-5.5	nt	1.1	nt	nt
- CC(C)CCC(CCN1CCOCC1)c1ccc2c(c1)OCO2 (stereo not drawn)
 : 2.9	1.8	4.8	20867*	6.1	-9.8	-4.1
- Cc1ccc(C)c(C(=O)Nc2c(C(N)=O)oc3ccccc23)c1
 : 9.4	-0.8	-0.2	5547	1.5	-35.2	0.8
- COc1ccc2cc(C(=O)Nc3ccc(S(N)(=O)=O)cc3)sc(=O)c2c1OC
 : 1.7	-2.2	8.2	4932	5.1	-2.9	3.1
- Cc1nc(/C(N)=N/OC(=O)Cc2ccccc2)no1
 : nt	nt	nt	4719	nt	-21.5	-4.2
- CN(C)CCCNCCCNC(=O)c1ccncc1
 : 7.6	1.0	2.2	21704*	-0.8	4.2	-1.4
- CCc1nc(C)cn1S(=O)(=O)c1cc(F)ccc1OC
 : 7.0	7.7	12.8	4566	7.0	-28.1	4.9
- Nn1c(COc2cccc(Cl)c2)nc2ccccc2c1=O
 : 0.4	-4.9	0.1	2492	3.1	-2.3	-1.1
- Clc1ccc(Cn2nnc(-c3ccccc3)n2)cc1
 : nt	4.6	nt	4158	4.3	-15.0	-4.2
- CC(=O)Nc1nonc1-n1nnc(C(=O)NCc2ccccc2)c1C
 : 5.7	-2.1	1.6	15444	-1.3	-8.3	-6.2
- CCOc1ccc(NC(=O)c2ccccn2)cc1
 : 11.1	-1.7	4.2	2340	-3.8	61.8*	13.3
- CCOC(=O)c1sc(N/N=C/c2cccc(C)c2)nc1C
 : nt	nt	nt	3542	nt	-53.7	-1.1
- COC(=O)C1CCN(C(=O)COC(=O)c2ccc3[nH]c4c(c3c2)CCCC4)CC1
 : 10.3	6.6	17.4	nt	4.2	-16.8	-2.9
- COc1ccc(-c2cc(C(F)(F)F)nc(SCC(=O)Nc3ccc4c(c3)OCO4)n2)cc1
 : 6.2	-2.2	8.9	1885	5.0	-16.9	-11.4
- Cc1ccc(CN2CCN(/N=C/c3ccc(C(=O)O)cc3)CC2)c(C)c1
 : nt	nt	nt	4071	nt	-25.8	5.8
- C/C(N)=C(/C#N)C(=O)COC(=O)C1CCN(C(=O)c2ccc(Cl)cc2)CC1
 : 7.6	1.6	2.9	4197	10.7	-26.2	-16.8
- Cc1cc(O)c(C(=O)/C=C/c2cccc([N+](=O)[O-])c2)c(=O)o1
 : nt	nt	nt	3658	nt	-26.7	8.7
- O=C(NN=Cc1cccs1)C(=O)Nc1cccc(Cl)c1
 : -5.1	-7.1	-8.5	nt	-3.8	nt	nt
- Cc1nn(C)c(Oc2ccccc2)c1[N+](=O)[O-]
 : 1.9	1.9	16.6	5754	1.5	-27.3	3.6
- Cc1ncoc1C(=O)Nc1cccc(Cl)c1C
 : 8.6	-3.4	5.1	23395*	1.2	-5.7	2.3
- O=C(Cn1cnc2ccccc21)NN=Cc1ccco1
 : 6.5	6.8	4.5	nt	1.0	nt	nt
- Cn1c(O)c(N=NC(=O)CNC(=O)/C=C/c2ccccc2)c2ccccc21
 : -4.1	-7.6	-7.0	5927	-2.5	-22.1	0.9
- CCCc1cc(=O)[nH]c(SCC(=O)c2c(N)n(C)c(=O)n(C)c2=O)n1
 : 8.0	-5.9	13.0	2306	-7.0	-6.6	-5.9
- C=CCNc1nc(N)c([N+](=O)[O-])c(NC2CCCCC2)n1
 : 8.0	4.8	7.4	3186	-2.9	-2.8	-1.2

Entries of single compounds, quoted from the list. Order of screens: Mtb hypoxia rep growth	Sa ugtP lethal	Mtb hypoxia rep	Autofluor counter	RN4220 kill	PrP UTR inh	BJeLR lethal
C=CCNc1nc(N)c([N+](=O)[O-])c(NC2CCCCC2)n1 is listed as 8.0	4.8	7.4	3186	-2.9	-2.8	-1.2
Cc1ncoc1C(=O)Nc1cccc(Cl)c1C is listed as 8.6	-3.4	5.1	23395*	1.2	-5.7	2.3

Additional compounds:
The line under a structure holds: Mtb hypoxia rep growth	Sa ugtP lethal	Mtb hypoxia rep	Autofluor counter	RN4220 kill	PrP UTR inh	BJeLR lethal
- Cc1ccc(-c2nnn(CC(=O)N3CCC(C)CC3)n2)o1
 : 7.8	1.7	2.6	10089	2.4	-37.5	9.8
- COc1cc2c(cc1OC)C(c1cccs1)CC(=O)N2 (stereo not drawn)
 : 0.5	-7.9	-2.6	5372	-1.4	-13.5	-1.2
- CCN(CC)Cc1c(C(=O)NN=Cc2c(Cl)cccc2Cl)nnn1-c1nonc1N
 : 6.1	3.1	14.3	nt	5.2	nt	nt
- C=CCNC(=O)c1cccc(C(F)(F)F)c1
 : nt	-4.7	nt	10673	0.2	-14.9	-0.9
- Cc1nn(C)cc1C(C(=O)NC1CCCCC1)N(C(=O)c1cnccn1)c1ccc(Oc2ccccc2)cc1 (stereo not drawn)
 : 0.0	1.9	1.7	2481	3.4	-3.0	-2.6
- Cc1ccc2c(c1)sc(-c1ccc(N(C)C)cc1)[n+]2C
 : nt	100.7*	nt	4502	99.9*	-26.6	45.2
- Cc1cc(C(c2ccc(O)cc2)c2cc(C)c(O)cc2C)c(C)cc1O
 : 6.0	-29.8	-12.5	4737	-7.7	-8.2	2.6
- Cc1cccn2c(=O)c(/C=N/O)c(N3CCCC3)nc12
 : nt	nt	nt	16881*	nt	-0.5	4.1
- O=C(c1cccc(N2C(=O)C3C4C=CC(C4)C3C2=O)c1)N1CCN(c2ccc(F)cc2)CC1 (stereo not drawn)
 : 8.5	-2.3	6.7	4504	1.5	-10.2	10.6
- N#CCC(c1ccccc1)N1CCN(Cc2ccccc2)CCC1=O (stereo not drawn)
 : 8.5	-6.6	9.3	nt	6.1	nt	nt

Among those listed so far, these have an aryl methoxy group.
The line under a structure holds: Mtb hypoxia rep growth	Sa ugtP lethal	Mtb hypoxia rep	Autofluor counter	RN4220 kill	PrP UTR inh	BJeLR lethal
- COc1ccc(S(=O)(=O)N2CCC(C(=O)NCCOc3ccccc3F)CC2)cc1OC
 : -4.1	0.5	-3.1	nt	3.1	-0.8	nt
- COc1ccc(S(=O)(=O)N2CCOCC2)cc1C(=O)N1CCCCC1
 : 6.9	8.0	2.6	6614	2.6	-3.0	2.0
- COc1ccc(CCNC(=O)COC(=O)C2COc3ccccc3O2)cc1 (stereo not drawn)
 : 5.1	2.0	7.7	6331	3.0	4.0	nt
- COc1ccc(OCCNS(=O)(=O)Cc2ccccc2)cc1
 : -5.5	0.8	-0.9	2824	-4.8	-15.0	-8.2
- COc1ccc2cc(C(=O)Nc3ccc(S(N)(=O)=O)cc3)sc(=O)c2c1OC
 : 1.7	-2.2	8.2	4932	5.1	-2.9	3.1
- CCc1nc(C)cn1S(=O)(=O)c1cc(F)ccc1OC
 : 7.0	7.7	12.8	4566	7.0	-28.1	4.9
- COc1ccc(-c2cc(C(F)(F)F)nc(SCC(=O)Nc3ccc4c(c3)OCO4)n2)cc1
 : 6.2	-2.2	8.9	1885	5.0	-16.9	-11.4
- COc1cc2c(cc1OC)C(c1cccs1)CC(=O)N2 (stereo not drawn)
 : 0.5	-7.9	-2.6	5372	-1.4	-13.5	-1.2

Screening data as filed in PubChem.
